Source: PubChem BioAssay (ICCB-Longwood Screening Facility, Harvard Medical School)
MgrA DNA FP – alters Staphylococcus aureus MgrA binding to DNA; fluorescence polarization; inhibition, %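 (about 10 µg/mL by stock and volumes)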; hit rate 0.13% among 84,000; AID 602314;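 active means above 50% in either of two replicates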;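 further: 0% = protein plus DNA without compound and 100% = DNA alone without protein; higher means less MgrA bound to DNA so lower polarization; one replicate is shown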
S aureus helic – blocks Staphylococcus aureus DNA helicase | purified S. aureus helicase, fluorescence unwinding assay; about half of the hits fall short of the stated cut | inhibition, %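 (tested at about 80 µM)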 | hit rate 0.05% among 120,000 | AID 485395;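 active means both duplicates at 50% or more, or one of them with a favoured structure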;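 further: 0% = mean of negative control wells and 100% = mean of positive control wells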
* = called active by the depositor; / = not tested or not shown; & = joins results of further samples. Some of the compounds tested; the hit share may differ from the screen's.

SMILES	MgrA DNA FP	S aureus helic
COC(=O)CS(=O)(=O)c1cc(C)c(Cl)cc1Cl	-3.8	/
C=CCN(CC=C)Cc1c(O)ccc2c(=O)c(-c3ccccc3Cl)coc12	/	0
COc1cccc(-n2c(C)cc3c2CC(C)(C)CC3=O)c1	-1.6	/
CC(=O)N1CCCc2cc(S(=O)(=O)N3CCCC3)ccc21	4.9	12
COc1ccc(CNC(=O)c2cc3c(=O)[nH]c4ccccc4c3n2C)cc1	/	7
O=C(O)c1ccc(CO)o1	-5.5	3
FC(F)(F)c1cccc(NC(=S)Nc2ccc(NC(=S)Nc3cccc(C(F)(F)F)c3)cc2)c1	-0.8	/
N#CCC(=O)Nc1ccccc1Oc1ccccc1	-2.0	4
O=C(Nc1ccccc1-c1nc2ccccc2s1)c1ccccc1	-0.1	6
O=C(Nc1nonc1OCCOc1nonc1NC(=O)c1ccccc1)c1ccccc1	-2.4	7
Cc1nc(C(F)(F)F)ccc1C(=O)Nc1ccc2ccccc2n1	0.8	/
CCOc1ccc(NCc2n[nH]c(=S)n2-c2ccc(C)cc2)cc1	0.0	1
COC(=O)CN1c2ccccc2NC2=C(C(=O)CC(C)(C)C2)C1c1ccco1 (stereo unspecified)	/	-4
C1CCCN(c2nc(N3CCCCCC3)nc(N3CCCCCC3)n2)CC1	0.1	1
O=C(O)C1CCCCC1C(=O)NCc1cn2ccccc2n1 (stereo unspecified)	/	0
CON(C)c1nc(OCCNC(=O)OCc2ccc(Cl)cc2Cl)nc(N(C)C)n1	1.5	4
CCOC(=O)C1(CC)C(=O)OC(C(=O)NC2CCCCC2)C1C (stereo unspecified)	0.6	3
CC(C)(C)OC(=O)N1CC2C(C1)C2NC(=O)c1nsc(Cl)c1Cl (stereo unspecified)	-0.8	17
COc1cc(CN2CCOCC2)ccc1O	-0.9	24
Cc1ccccc1-c1nnn(C/C(N)=N/O)n1	-4.0	0
COc1cccc(NC(=O)CCSc2ccc3ccccc3n2)c1	/	-7
Cc1ccc(C(=O)COc2nc(C)nc3ccccc23)cc1	/	-4
COc1cc(NC(=O)C2COc3ccccc3O2)c(OC)cc1Cl (stereo unspecified)	0.2	/
CS(=O)(=O)Nc1cccc(-c2nc3cccnc3s2)c1	/	-2
O=C1Oc2ccc(Br)cc2CC1C(=O)N1CCCCC1 (stereo unspecified)	2.5	/
CCSC1=C(C#N)C2(CCN(C)CC2)C(C#N)C(=O)N1 (stereo unspecified)	/	-2
Cc1ccc(C(=O)N2CCc3ccccc32)cc1Br	-4.0	-17
Cc1ccc(-c2cc(-c3ccccc3)nc(=O)[nH]2)cc1	2.8	/
CCOc1cc(C(Nc2cccnc2)c2ccc3cccnc3c2O)ccc1O (stereo unspecified)	49	-3
Cc1sc2nc(COC(=O)C3CCN(S(=O)(=O)c4cccs4)CC3)[nH]c(=O)c2c1C	/	-87
COc1ccccc1OCCOc1ccc(-c2nc3sc4c(c3c(=O)[nH]2)CCCC4)cc1	2.3	0
C=CCn1nnnc1SCC(=O)Nc1ccccc1	/	-8
COc1ccc(-c2ccnc(SCc3ccccc3)n2)cc1	-1.1	/
CCN(CC)S(=O)(=O)c1ccc(Cl)c(C(=O)Oc2ccc(C)c(C)c2)c1	-0.1	14
O=C(O)c1cc(O)[nH]c(=O)c1	6.0	/
CC/C=C\C/C=C\C/C=C\CCCCCCCCCC(=O)O	2.0	/
CN1CCN(/N=C2/C=C(c3ccccc3)C(O)(c3ccccc3)C2)CC1 (stereo unspecified)	/	-9
COc1ccc(-n2c(C)cc(C3N=C(N)Nc4nc5ccccc5n43)c2C)cc1 (stereo unspecified)	/	17
O=C(c1cc2ccccc2o1)c1cnc2ccccn12	/	13
COc1ccc(NC(=O)c2ccc(CN3CCc4ccccc4C3)cc2)cc1OC	/	8
CCC(=O)NC(=S)Nc1cccc(NC(=O)c2ccco2)c1	0.7	15
COc1ccc(N2CS(=O)(=O)CC2=O)cc1	-0.2	/
Cc1ccc(C)c(NC(=O)CS(=O)(=O)c2c[nH]c3ccccc23)c1	1.2	3
COC(=O)c1cc(-c2cccc(Br)c2)no1	/	1
Cc1nc(CSc2nncs2)cs1	/	3
COc1ccc(C(=O)Nc2ccccc2C2(C)CC2)cc1	-1.9	-1
O=S1(=O)CCN(Cc2ccc(NS(=O)(=O)c3cccs3)cc2)CC1	-1.1	/
CC(OC(=O)Cn1ccc(=O)[nH]c1=O)c1ccccc1Cl (stereo unspecified)	/	-4
O=C(Cn1c(=O)cnc2ccccc21)N1CCCCC1	1.4	5
CC(=O)OC(C(=O)O)c1ccccc1 (stereo unspecified)	-1.0	/
COc1ccc(C2NCCc3sccc32)cc1 (stereo unspecified)	0.6	/
COc1ccc2c(Cl)c(C(N)=O)sc2c1	1.1	9
Cc1onc(-c2ccccc2)c1C(=O)Nc1ccccc1N1CCOCC1	/	-11
O=C(Nc1ccc2c(c1)OCO2)C1(c2ccc(Cl)cc2)CC1	/	8
O=C(/C=C/c1ccccc1)Nc1ccccc1N1CCN(c2ccccc2)CC1	2.4	0
Cc1cc(NC(=O)C2C3C(=O)N(CCC(C)C)C(C(=O)NC(C)(C)C)C34C=CC2(C)O4)no1 (stereo unspecified)	0.3	9
C/C=C/C(=O)Nc1cccc(C(F)(F)F)c1	0.2	/
CCC(=O)N1CCc2cc(S(=O)(=O)NC(C(=O)Nc3ccc(OC)c(OC)c3)C(C)C)ccc21 (stereo unspecified)	/	-37
COc1ccc(C(=O)/C=C/Nc2ccc(C(F)(F)F)cc2)cc1	-0.8	/
COC(=O)c1cccc2c1-c1ccccc1C2=O	1.0	/

Some values from the results shown:
For MgrA DNA FP, O=C(/C=C/c1ccccc1)Nc1ccccc1N1CCN(c2ccccc2)CC1 is entered as 2.4
For S aureus helic, CCC(=O)N1CCc2cc(S(=O)(=O)NC(C(=O)Nc3ccc(OC)c(OC)c3)C(C)C)ccc21 (stereo unspecified) is entered as -37

Additional structures:
SMILES	MgrA DNA FP	S aureus helic
CCN1C(=O)c2ccccc2S(=O)c2ccc(C(=O)N3CCC(C)CC3)cc21 (stereo unspecified)	/	15
Cc1sc2nc(C)n(NC(N)=O)c(=O)c2c1C	-0.2	0
CN(c1c2c(nn1C)CCCC2)S(=O)(=O)c1ccc(Cl)cc1	1.9	/
CC1=NN(S(=O)(=O)c2ccccc2)C(O)(C(F)(F)F)C1 (stereo unspecified)	-4.2	5
CCC(C)C(NC(=O)c1ccccc1)c1nc2ccccc2[nH]1 (stereo unspecified)	-2.6	4
O=C(/C=C/c1ccco1)NC(=S)Nc1ccc2ccccc2c1	8.3	3
O=C(O)c1ccc(-c2cccc(Cl)c2)o1	-3.2	14
O=C(COC(=O)C1COc2ccccc2O1)Nc1ccc(S(=O)(=O)N2CCCCC2)cc1 (stereo unspecified)	/	11
CCOc1ccccc1C(=O)NC1CCN(Cc2nnnn2C2CCCC2)CC1	1.5	-8
CC(C)(C)NC(=O)Cn1c(-c2nonc2N)nc2ccccc21	-2.2	6
CC1(C)CC(NC(=O)CC(c2ccc(F)cc2)c2ccco2)CCO1 (stereo unspecified)	/	-22
NC(=O)CSc1nc2ccccc2c(=O)n1Cc1ccco1	-1.2	5
CN(Cc1ccccc1)S(=O)(=O)c1ncn[nH]1	/	12
CN1CCCN(C(=O)C23CC4CC(C)(CC(C)(C4)C2)C3)CC1	4.8	9
COC(=O)CNS(=O)(=O)Nc1ccc(-c2nc3ccc(C)cc3s2)cc1	-4.0	15
CCCN(CCC)S(=O)(=O)c1ccc(C(=O)Oc2c(C)cccc2OC)cc1	1.9	/
C[C@@H](C(=O)NCCc1ccc(Cl)cc1)N1C(=O)C2CC=CCC2C1=O (stereo partly specified)	/	0
CC(=O)Oc1cccc(/C=C2\N=C(c3ccccc3Br)OC2=O)c1	4.5	6
C/C(=N\O)c1cc(Cl)sc1Cl	-1.2	/
CCN(c1cccc(C)c1)C(C(=O)Nc1ccc2c(c1)OCCO2)c1ccccc1 (stereo unspecified)	0.4	16

Part of the list above, as labelled records.
CC(C)(C)NC(=O)Cn1c(-c2nonc2N)nc2ccccc21
  MgrA DNA FP: -2.2
  S aureus helic: 6
CC1(C)CC(NC(=O)CC(c2ccc(F)cc2)c2ccco2)CCO1 (stereo unspecified)
  MgrA DNA FP: /
  S aureus helic: -22
NC(=O)CSc1nc2ccccc2c(=O)n1Cc1ccco1
  MgrA DNA FP: -1.2
  S aureus helic: 5
CN(Cc1ccccc1)S(=O)(=O)c1ncn[nH]1
  MgrA DNA FP: /
  S aureus helic: 12

Continued.
SMILES	MgrA DNA FP	S aureus helic
c1ccc2sc(NCC3CCCO3)nc2c1 (stereo unspecified)	0.8	-9
CN1CCC(N(C)C(=O)c2sc3cc(F)ccc3c2Cl)CC1	1.3	-28
CN(C)S(=O)(=O)c1cccc(CSc2nc3ccccc3o2)c1	/	9
CCc1c(C)c(C#N)c2nc3ccccc3n2c1N1CCN(Cc2cc(Cl)ccc2OC)CC1	2.2	-2
O=C1C=C(c2ccc(Br)cc2)OC(c2ccccc2)O1 (stereo unspecified)	1.8	-4
CC(C)(C)C(=O)CC#N	/	-3
CCCCC1(C)OC(=O)C(=Cc2ccc(Br)o2)C(=O)O1 (stereo unspecified)	/	14
O=C(Nc1ccc2c(c1)COC2=O)c1ccc(F)cc1	1.1	3
COC(=O)c1cc(OC(=O)c2ccc(Cl)cc2)n(C(C)(C)C)n1	/	8
c1cn(-c2ccc(-c3csnn3)cc2)cn1	-4.9	/
CN(CC(=O)NCCc1ccc(S(N)(=O)=O)cc1)Cc1cccs1	/	3
O=S(=O)(NCc1ccccc1)c1cc(Br)c(Br)s1	-3.0	/
CCC(C)C(=O)Nc1ccc(OC)cc1 (stereo unspecified)	1.2	13
CCCc1cc(=O)[nH]c(SCc2ccccc2Cl)n1	-3.3	/
Cc1ccc(C(C(=O)NC2CCCC2)N2CCC3(CC2)OCCO3)cc1 (stereo unspecified)	/	-24
OC(CNCc1ccc2c(c1)OCO2)COc1ccc(F)cc1 (stereo unspecified)	1.4	/
COc1ccc(/C(C#N)=C/c2ccc(OC)c(OC)c2)cc1	-2.4	/
Cc1cccc(OCC(O)CN)c1 (stereo unspecified)	0.2	9
O=C(O)c1ccc(CSc2nc(-c3ccccc3)cc(C(F)(F)F)n2)cc1	2.4	6
O=C1c2ccccc2C(=O)C1c1ccc(OC(F)F)cc1	/	-2

Record cards, as listed above. Order of screens: MgrA DNA FP	S aureus helic
Entry for CCCCC1(C)OC(=O)C(=Cc2ccc(Br)o2)C(=O)O1 (stereo unspecified) : /	14
Entry for Cc1ccc(C(C(=O)NC2CCCC2)N2CCC3(CC2)OCCO3)cc1 (stereo unspecified) : /	-24
Entry for c1cn(-c2ccc(-c3csnn3)cc2)cn1 : -4.9	/
Entry for Cc1cccc(OCC(O)CN)c1 (stereo unspecified) : 0.2	9
Entry for O=C(O)c1ccc(CSc2nc(-c3ccccc3)cc(C(F)(F)F)n2)cc1 : 2.4	6

The list goes on.
SMILES	MgrA DNA FP	S aureus helic
Cc1ccc2c(C)c(C(=O)N(Cc3ccco3)Cc3ccccc3Cl)oc2c1C	6.8	12
O=C(O)CCc1cn(CCC(=O)O)nc1-c1ccc(Cl)cc1	/	4
COC(=O)/C=C1/C(=O)N(C(C)=O)c2ccccc21	-3.9	10
O=C1CN(C(=O)COC(=O)/C=C/c2ccco2)c2ccccc2N1	/	20
O=C(NC1CCCC1)[C@H](CSCc1ccccc1)N1Cc2ccccc2C1=O	-5.5	16
NCc1cn(-c2ccccc2)nc1-c1ccccc1	/	2
O=C(O)CSCC(=O)c1ccccc1	/	-3
COc1cc(C2NCCc3c2[nH]c2ccccc32)ccc1OC(C)C (stereo unspecified)	-1.9	14
CC1=C(C(=O)OCCOc2ccccc2)C(c2coc3ccc(Cl)cc3c2=O)C2=C(CCCC2=O)N1 (stereo unspecified)	-0.9	/
CCOC(=O)c1ccoc1CSCc1ccc(C(=O)OC)o1	/	-15
O=C(CSc1ncccn1)N1N=C(c2cccs2)CC1c1ccco1 (stereo unspecified)	/	-9
CCCCn1c(SCC(N)=O)nc2c1c(=O)n(C)c(=O)n2C	/	-20
NS(=O)(=O)c1cc2c(cc1Cl)NC=NS2(=O)=O	3.0&4.7	/
CN1CCN(/C=N/c2nc3c(s2)CCCC3)CC1	/	8
CCc1ccc(Nc2nc3ccccc3nc2NS(=O)(=O)c2ccc(C)cc2)cc1	1.8	5
NS(=O)(=O)c1ccc(CNC(=O)COC(=O)c2ccccn2)cc1	/	4
CC(C)CN(CC(C)C)S(=O)(=O)c1ccc(N)cc1	-2.4	4
c1ccc(CNc2nc(-c3ccccc3)no2)cc1	/	6
O=C(COC(=O)c1ccccn1)Nc1cccc(Cl)c1	1.2	-26
CCSc1cc(CC)c(C#N)c2nc3ccccc3n12	/	-12
NCCCc1ccc(Cl)cc1	3.9	0
COc1ccc2c(=O)c(-c3ccc(F)cc3)coc2c1	0.3	0
Cc1sc2c(c1C)CN(Cc1ccco1)CN2C(=O)c1ccccc1	0.3	6
O=S(=O)(Cc1ccccc1)NCc1csc(-c2cccs2)n1	-2.6	/
Nc1ccc(Oc2ccc(F)cc2F)nc1	-1.8	/
Cc1cc(C(=O)Nc2ccccc2)oc(=O)c1	0.3	/
COc1ccc([N+](=O)[O-])c(OC)c1C(=O)Nc1ccccc1C(=O)NCC1CC1	-4.3	/
CCN(c1ccccc1)S(=O)(=O)c1cc(OC)ccc1OC	/	40
CCCCC/C=C\C\C=C/C=C/C=C/[C@@H](SCC(NC(C)=O)C(=O)O)[C@@H](O)CCCC(=O)O (stereo partly specified)	1.5	/
Cc1ccc(N/C(=C\C(=O)c2ccccc2)C(=O)O)cc1	-0.8	20
Cc1sc2nc[nH]c(=O)c2c1-c1ccc(F)cc1	/	0
COc1ccc(Cl)cc1N/C=C(\C#N)c1nc(-c2cc3cc(Br)ccc3oc2=O)cs1	-1.6	/
